ClpP mod: qHTS Assay for Activators of ClpP; purified B. subtilis ClpP, FRET peptide cleavage, 20 min; actives 1.9% (n = 340,000); Potency, µM (titrated, usually from 57.5 µM), without a hit: at the highest dose activity change, negative = active; active = well fitted falling curve with a large enough effect; inconclusive = small, poorly fitted or top-dose-only effect; inactive = no such curve, though single readings can be large or run the other way; also: potency is read from the fitted curve at half-maximal effect; the source files actives as falling curves though it sought activators and does not explain the sign; nearly all actives have a fitted effect of over 65% in size; many hits overshoot -100%
Target sequence (P80244 whole entry, looked up): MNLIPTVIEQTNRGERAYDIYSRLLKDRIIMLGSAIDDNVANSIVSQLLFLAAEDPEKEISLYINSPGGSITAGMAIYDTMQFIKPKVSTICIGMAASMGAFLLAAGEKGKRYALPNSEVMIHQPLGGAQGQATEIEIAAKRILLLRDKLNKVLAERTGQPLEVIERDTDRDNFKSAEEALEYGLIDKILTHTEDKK
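Buffer: 100 mM Tris/HCl pH8, 100 mM KCl, 0.05% low protease BSA, 2.5% glycerol, 0.01% Tween-20. ClpP 10 microg/mL final; 20 min RT; delta FRET normalized to ADEP and DMSO controls.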
Sfp PPTase inh: qHTS Assay for Inhibitors of Bacillus subtilis Sfp phosphopantetheinyl transferase (PPTase); Biochemical Sfp PPTase activity, qHTS; actives 3.5% (n = 310,000); Potency, µM, inactives show max response, negative = inhibition, most hits filed as inhibitors; 4'-phosphopantetheinyl transferase ffp (Bacillus subtilis), Q9F4F7; active = well fitted inhibition curve with a large enough effect; inconclusive = small, poorly fitted or top-dose-only effect, or another doubt; inactive = no such curve, though single readings can be large or run the other way;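 also: the enzyme is Sfp with the accession as filed and its product quenches rhodamine fluorescence; potency is read from the fitted curve at half-maximal effect; 0% = enzyme reaction without inhibitor and -100% = no enzyme wells; top concentration of the series not given in the record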
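Sfp 15 nM + cpd, 15 min RT; start w/ rhodamine-CoA 5 uM, BHQ-2-YbbR 12.5 uM (final); 50 mM Hepes pH 7.6, 10 mM MgCl2, 0.01% NP-40, 0.01% BSA; read 525/598 nm at 0 and 30 min.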
TRPV1 potentiator: HTS Assay for Compounds that Act as Potentiators of the Vanilloid Receptor 1; TRPV1-expressing cells, Fluo-8 calcium influx, capsaicin EC20 potentiation; host cell line not named in the record; control for the full effect not named in the record; AID 540277, 2011; actives 0.02% (n = 320,000); Transient receptor potential cation channel subfamily V member 1 (Homo sapiens), Q8NER1; potentiation, % at 8.33 µM; active means potentiation above 80%; inconclusive means 30% to 80%; inactive means below 30%; also: 0% is about no effect
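TRPV1-expressing cells were cultured overnight at 35.5C and loaded with Fluo-8 calcium dye for 40 to 90 min at room temperature. After a 10 s baseline, compound was added and calcium influx was read kinetically for 3 min (ex 480/em 520 nm).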
Menin MLL FP FL: qHTS Assay for Inhibitors Targeting the Menin-MLL Interaction in MLL Related Leukemias: Competition With Fluorescein Labeled MLL-derived Peptide | AID 1766, 2009 | Fluorescence polarization, fluorescein-MLL peptide displacement from menin | 290,000 tested, under 10 active | FP activity change, % at 61.4 µM; inconclusive = falling polarisation curve, or a change in total fluorescence; inactive = total fluorescence flat and polarisation flat or rising; no compound was filed as active; the % refers to the polarisation; negative = inhibition;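 also: % of control where 0% means no effect; inhibitors lower the polarisation; unlabelled MLL peptide was the positive control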
TRPML1 inh: qHTS for Inhibitors of the Human Mucolipin Transient Receptor Potential 1 (TRPML1) | TRPML1-inducible cells, Ca2+ dye fluorescence, FDSS; active compounds read low; inhibition of EC80 agonist-evoked calcium signal | AID 624415, 2012 | actives 0.02% (n = 390,000) | activity change, negative = inhibition, % (no concentration beside the values) | Mucolipin-1 (Homo sapiens), Q9GZU1; in the data active means activity change below about -50%; inconclusive means about -30% to -50%; inactive means above about -30%;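 also: stimulus is agonist 54-4 at its EC80 concentration; % is scaled to controls: 0 for no effect and ±100 for the full control effect; compound concentration not given in the record; the text of the record puts the active cut at -80%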
Target sequence (Q9GZU1 whole entry, looked up): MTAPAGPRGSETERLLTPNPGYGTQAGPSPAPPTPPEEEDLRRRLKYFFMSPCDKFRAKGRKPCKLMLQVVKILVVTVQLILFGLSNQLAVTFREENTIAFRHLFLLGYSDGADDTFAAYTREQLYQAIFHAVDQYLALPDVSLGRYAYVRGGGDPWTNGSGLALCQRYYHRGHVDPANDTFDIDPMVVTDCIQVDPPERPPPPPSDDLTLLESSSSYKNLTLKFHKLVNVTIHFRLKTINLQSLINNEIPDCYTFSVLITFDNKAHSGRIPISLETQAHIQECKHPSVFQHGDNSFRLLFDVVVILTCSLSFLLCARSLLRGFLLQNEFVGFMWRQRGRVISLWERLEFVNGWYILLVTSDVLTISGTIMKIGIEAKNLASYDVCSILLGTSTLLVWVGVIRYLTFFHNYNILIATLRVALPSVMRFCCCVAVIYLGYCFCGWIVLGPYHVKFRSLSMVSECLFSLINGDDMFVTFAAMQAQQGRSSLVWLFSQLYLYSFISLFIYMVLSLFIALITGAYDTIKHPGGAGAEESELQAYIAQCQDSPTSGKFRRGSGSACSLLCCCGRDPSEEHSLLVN
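Calcium fluorescence in TRPML1-DL cells induced overnight with Tet: a 110 s read after compound pin addition, then a 110 s antagonist read after challenge with 54-4 at 4 uM final (EC80).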
PINK1 expr mod: A Quantitative High throughput Screen to Identify Chemical Modulators of PINK1 Expression; PINK1 immunofluorescence, high-content cytometry, 24 h; Potency, µM (series often up to 76.6 µM), for inactives: top-dose activation (PINK1 increase), most hits filed as activators; actives 0.2% (n = 410,000); active = well fitted activation curve with a large enough effect; inconclusive = small, poorly fitted or top-dose-only effect; inactive = flat fitted curve, though single readings scatter; cell line not stated here;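 also: potency is read from the fitted curve at half-maximal effect; % of control where 0% means no effect; nearly all actives have a fitted effect of over 65% in size; a mitochondrial uncoupler was the plate control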
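Fluorescence from anti-PINK1 antibody, together with nuclear and cell stains, was scanned on a laser-scanning cytometer. Before staining, stable-line cells were incubated 24 hours with compounds at 5 concentrations; primary antibody 12 h at 10 degrees C.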
TRPML1 ag: qHTS for Agonists of the Human Mucolipin Transient Receptor Potential 1 (TRPML1); AID 624414, 2012; actives 0.12% (n = 410,000); TRPML1-expressing cells, Ca2+ dye fluorescence, FDSS; host cell line not named in the record; reference of the full effect not given here; Mucolipin-1 (Homo sapiens), Q9GZU1; activation, % (no concentration beside the values); in the data active = activation above about 50%; inconclusive = about 30% to 50%; inactive = below about 30%; also: 0% is about no effect; the text of the record puts the active cut at 80%
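Tet-induced TRPML1-DL cells, 1,500 per well, cultured overnight, were loaded with a no-wash Ca2+ dye for 45–90 min. Calcium fluorescence was recorded on the FDSS for 110 s after compound addition, before the EC80 agonist (4 uM 54-4) was added.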
Starred values were filed as active, the others as inactive; ? = inconclusive; nt = not tested or not shown; [ ] = remark or other dose.

SMILES | ClpP mod | Sfp PPTase inh | TRPV1 potentiator | Menin MLL FP FL | TRPML1 inh | PINK1 expr mod | TRPML1 ag
O=C(Nc1ccccn1)c1csc2c1CCCC2 | nt | 17.6% | -3.8 | -3.0 | -17.1 | 4.9% | 0.5
C=CCn1c(SCC)nc2sc3c(c2c1=O)CCc1ccccc1-3 | -5.9% | -8.6% | 1.8 | -0.7 | -26.6 | 7.1%[38.3 µM] | 3.3
CC(C)CC(C(=O)NC(C)(C)C)N(Cc1cccs1)C(=O)c1snc(C(N)=O)c1N (stereo not given) | -16.4% | 19.8% | 1.5 | -0.8 | 8.5 | -1.8% | 4.0
COc1cccc(Cn2c(=O)c(-c3cccs3)nc3cnc(Nc4ccccc4)nc32)c1 | nt | 0.9% | nt | ? | nt | ? | nt
COc1cc(C(=O)OCC(=O)N2CCCCC2C)ccc1OCc1c(C)noc1C (stereo not given) | -9.4% | -1.4% | -10.5 | 0.3 | 14.2 | 4.5% | 0.9
Cc1ccc(NC(=O)c2ccc(S(=O)(=O)N3CCCCCC3)cc2)nc1 | -1.3% | nt | -14.8 | nt | 2.5 | -0.9% | 0.8
CCOC(=O)c1ccc(-n2c(CCC(=O)O)ccc2-c2ccccc2)cc1O | -2.4% | nt | nt | nt | 4.5 | 1.5% | -0.6
CCCn1c(N)c(N(CCOC)C(=O)c2ccc(F)cc2F)c(=O)[nH]c1=O | nt | 10.4% | 5.7 | 1.5 | -11.3 | 0.7% | -0.4
CC1(C(=O)NC2CCCCC2)Cc2ccccc2C(=O)N1Cc1ccc(Cl)cc1 (stereo not given) | 0.6% | nt | nt | nt | -2.3 | 0.8% | 0.8
O=C(Nc1cccc(C(F)(F)F)c1)Nc1ccon1 | -1.4% | -8.8% | -7.0 | -7.2 | 5.2 | -1.5% | 0.3
O=C(NCCCC1CCCC1)C1CCC(=O)N(Cc2ccccc2F)C1 (stereo not given) | 1.4% | nt | nt | nt | -0.1 | -0.3% | 0.4
CN(C)/C=N/c1nc(-c2ccc3c(c2)OCO3)cs1 | nt | 10.4% | -8.0 | 5.4 | -18.4 | 2.1% | 2.4
COc1cc(C2CC(=O)Oc3c2c(=O)n(C)c2ccccc32)cc(OC)c1OC (stereo not given) | -10.3% | 13.3% | -1.0 | -2.1 | 14.5 | -0.7% | 0.5
O=C(CC(C(=O)N1CCc2ccccc21)n1ccnc1)N1CCc2ccccc2C1 (stereo not given) | -3.6% | -0.8% | -4.0 | 4.3 | 17.0 | 5.3%[38.3 µM] | 2.2
CC(=O)c1ccc(S(=O)(=O)N2CCC(c3nnc(SCCN4CCCC4)n3C)CC2)cc1 | nt | 9.3% | 30.0 | -3.6 | 11.0 | 1.4% | 1.0
NC(=O)c1cccc(Nc2nc(C(N)COCc3ccccc3)cs2)n1 (stereo not given) | 0.6% | nt | nt | nt | nt | 1.2% | -0.5
CCc1ccc(OCc2ccc(C(=O)NCc3ccccn3)o2)cc1 | -2.7% | 2.0% | -20.2 | -1.9 | 7.9 | 1.8% | 1.9
CCOC(=O)c1cc(-c2ccccc2)n(CCCC(=O)Nc2cccc(Cl)c2C)c1C | 3.3% | nt | nt | nt | 2.2 | 7.6% | 1.4
Cc1ccc(S(=O)(=O)N(C)C)cc1NC(=O)COC(=O)C1CCCC1 | nt | nt | -24.9 | nt | -9.7 | -0.3% | -0.6
O=C(NCc1ccccn1)c1ccc(OC2CCN(Cc3ccc(CO)o3)CC2)cc1 | 1.3% | 20.2% | 1.1 | nt | 8.5 | 1.8% | 0.5
CC(=O)c1c(C)[nH]c(C(=O)NCCN2CCC(C)CC2)c1C | 1.5% | 18.2% | 1.4 | -1.8 | -0.2 | 3.3% | 0.3
NS(=O)(=O)c1cc(C(=O)OCC(=O)c2ccc3c(c2)OCCO3)ccc1Cl | -0.9% | 8.1% | -7.7 | -1.7 | -3.6 | 0.8% | 0.4
Nc1nc(-c2cccc(NS(=O)(=O)c3ccccc3)c2)cs1 | 0.3% | -0.3% | 11.7 | 5.4 | 5.3 | 5.0%[38.3 µM] | 0.5
CCc1nnc(NCC(=O)N2CCc3ccccc32)s1 | -1.6% | -27.6% | -6.5 | -1.0 | -2.3 | -1.8% | ?
CCN(CC)S(=O)(=O)c1ccc(OC)c(NC(=O)OCc2ccccc2)c1 | -1.2% | 8.0% | -8.9 | nt | 9.7 | 3.7% | -1.0
SMILES | ClpP mod | Sfp PPTase inh | TRPV1 potentiator | Menin MLL FP FL | TRPML1 inh | PINK1 expr mod | TRPML1 ag
O=C(N/C(=C/c1ccc(Br)cc1)c1nc2ccccc2[nH]1)c1ccco1 | ? | 16.8% | nt | 2.3 | 17.9 | 9.5%[38.3 µM] | 0.6
Cc1cnc(C(=O)OCC(=O)c2cc(C)n(CCc3ccc(F)cc3)c2C)cn1 | -0.6% | nt | nt | nt | 9.6 | -1.3% | 0.3
CCCCCCn1c(N2CCCC2)nc2c1c(=O)[nH]c(=O)n2C | -1.8% | 3.0% | 1.6 | 5.1 | 15.5 | 2.6% | 1.1
Cc1ccnc2nc(C(=O)Nc3nc4ccccc4s3)nn12 | nt | -7.4% | -19.1 | 4.6 | 14.1 | -0.1% | 0.0
Cc1ccccc1NC(=O)Cc1nc(COC(=O)c2ccc([N+](=O)[O-])cc2)cs1 | 1.4% | nt | -4.2 | nt | -9.5 | 3.8% | 2.1
O=C(Nc1cc(C(F)(F)F)ccc1Cl)C(Sc1n[nH]c(=O)[nH]c1=O)c1ccccc1 (stereo not given) | nt | 22.5% | 2.5 | 1.9 | 15.6 | 5.9% | 0.2
COc1ccccc1C(=O)Nc1ccccc1N1CCN(C(=O)c2ccc(Cl)cc2)CC1 | ? | -15.3% | -3.5 | nt | 47.7 | -1.7% | 0.6
COc1ccccc1NC(=S)NCCc1ccc(S(N)(=O)=O)cc1 | nt | 16.8% | 2.1 | -0.2 | 0.3 | 0.7% | 0.0
Cc1ccccc1S(=O)(=O)N(CC(O)CN1CCCCC1)c1ccccc1 (stereo not given) | -0.5% | 1.6% | ? | nt | 5.3 | 0.6% | 0.6
CC1CCCCC1NC(=O)Cn1ncc2ccccc21 (stereo not given) | -3.0% | 12.8% | -14.1 | 0.5 | 5.8 | 3.4% | -0.1
CCN(C[C@H]1N[C@@](CC)(C(=O)OC)[C@H]2C(=O)N(Cc3ccccc3)C(=O)[C@@H]12)S(=O)(=O)c1ccc(C)cc1 | 1.3% | nt | nt | nt | 21.6 | 1.6% | -0.2
Fc1ccc(Cn2nnnc2CN2CCN(C3CCCCC3)CC2)cc1 | -0.8% | 6.2% | -10.0 | -15.4 | 0.8 | 0.8%[38.3 µM] | 5.0
CSc1cccc(NC(=O)CCNC(=O)c2ccco2)c1 | -2.1% | 19.1% | 4.0 | 1.8 | 16.3 | 0.5% | -0.7
CC1CCc2c(nc3ncnn3c2N2CCN(c3ccccc3F)CC2)C1 (stereo not given) | 1.9% | -0.4% | 3.5 | -1.2 | -6.0 | -1.8% | 3.0
CC1CCN(C(=O)c2cccc(NC(=O)c3cccs3)c2)CC1 | nt | -4.6% | -14.1 | -6.1 | 8.7 | 0.2% | -0.3
Cc1ccccc1OCC(=O)OCC(=O)NC1CCCCCC1 | 0.1% | nt | -31.1 | nt | -14.6 | 1.8% | 0.5
CCOc1ccc(S(=O)(=O)NCCC(=O)N2CCC(Cc3ccccc3)CC2)cc1 | -2.9% | 9.5% | 16.6 | nt | 30.9 | 0.9% | 1.0
COc1cc(C(Nc2ccccn2)c2ccc3ccc(C)nc3c2O)cc(OC)c1O (stereo not given) | 8.1% | 17.8µM* | -3.9 | 3.4 | 19.5 | -1.7% | 0.3
CCN(CC)CCN1C(=O)C(=O)/C(=C(/O)c2ccc(C)cc2)C1c1cccnc1 (stereo not given) | 0.6% | 24.4% | -4.5 | 4.5 | -11.0 | -0.1% | 0.8
CN(C)CCOC1(Cc2ccc(F)cc2)CCC(C(C)(C)C)CC1 (stereo not given) | -4.1% | nt | nt | nt | -4.3 | -7.2% | 3.5
CCNC(=O)c1ccccc1-c1nc(-c2ccccc2OC)no1 | -1.4% | 9.3% | 10.1 | 4.4 | 10.8 | 1.0% | -0.7
CCOC(=O)c1c(S(=O)(=O)N2CCCC(C(=O)Nc3ccccn3)C2)c(C)n(C)c1C (stereo not given) | 0.9% | nt | nt | nt | 5.9 | 1.8% | -0.5
CN(C)CCN1CCN(C2CN(Cc3cn(Cc4ccccc4C(F)(F)F)nn3)S(=O)(=O)C2)CC1 (stereo not given) | -2.1% | nt | nt | nt | nt | 0.9% | -0.7
CCn1c(C(=O)O)c(CC(=O)N(C)c2ccc(OC)cc2OC)c2ccccc21 | -17.1% | 8.1% | 7.8 | 4.0 | 5.0 | 0.4% | 0.5
COc1ccc(OC)c(C2C(C(=O)c3cccs3)=C(O)C(=O)N2CCN(C)C)c1 (stereo not given) | -17.7% | -2.6% | -5.4 | -0.7 | -18.8 | 2.6% | 0.1
Cc1c(C(=O)Nc2nnc(C(F)(F)F)s2)oc2ccccc12 | -5.6% | 10.0% | 8.8 | -0.4 | 6.0 | 12.3%[38.3 µM] | 1.0
CCOC(=O)C1=C(C)N(CCCCCC(=O)O)C(=O)NC1c1ccc(Br)cc1 (stereo not given) | 2.1% | 14.4% | 7.8 | 2.4 | 6.7 | -1.1% | -0.5
Cc1ccc(CNC(=O)C2c3ccccc3C(=O)N(C)C2c2c[nH]c3ccccc23)o1 (stereo not given) | 0.3% | 50.1µM* | -11.0 | 3.0 | -11.8 | -0.2% | -0.2
CC1(C)CC(=O)C(CC(=O)c2ccccc2)=C(NN=C(N)N)C1 | -7.2% | nt | nt | nt | -9.4 | 0.5% | 0.1
CCCCn1nc2cc(C(=O)NCc3ccccc3OC)ccc2c1OCC | 4.2% | 5.8% | 4.2 | 0.6 | 17.8 | 0.0% | 0.4

Bioassay records as filed in PubChem.

Hits appear at their usual frequency; overall some 4.4% were active at least once.
